Screening results as filed in PubChem.
UbGFP stabilizer: inhibits proteasome, raising ubiquitin-GFP reporter fluorescence | Ubiquitin-GFP reporter cells, proteasome inhibition, GFP fluorescence; response scale: untreated = 0%, 10 µM MG-132 = 100% | Potency, µM (titrated, usually from 45.9 µM), for the others: at the top dose activation (GFP accumulation), usual class: activators | 67,000 tested, under 10 active; active means well fitted activation curve with a large enough effect, not every such curve was filed as active; inconclusive means small, poorly fitted or top-dose-only effect, or another doubt; inactive means no such curve, though single readings can be large or run the other way; further: potency means the concentration at half of the fitted maximal effect
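Proteasome blockade was scored as a rise in GFP-expressing U2OS cells carrying a ubiquitin(G76V)-GFP construct, imaged after 4 hr compound treatment at 37 °C across a 46 uM–2.9 nM series.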
15-hLO inh: 15-hLO (ALOX15) enzyme inhibition; P16050; purified 15hLO-1, xylenol orange hydroperoxide absorbance; Potency, µM (highest dose often 57.1 µM), without a hit: top-dose activity change, negative = inhibition, hits mostly inhibitors; actives 1.4% (n = 74,000); further: potency means the concentration at half of the fitted maximal effect; on the % scale 0 is the no-effect control and ±100 the full control effect; nearly all actives have a fitted effect of over 55% in size
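Purified human 15hLO-1 (40 nM) in 25 mM Hepes pH 7.5, 0.01% Triton X-100, preincubated 15 min RT with compound, then 50 uM arachidonic acid for 6 min. Hydroperoxide read by ferrous/xylenol orange, 30 min; 573/405 nm absorbance ratio gave progress.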
BRCT inh green: BRCA1 BRCT-phosphoprotein interaction inhibition; BRCA1 BRCT-phosphopeptide binding, green fluorescence polarization; actives 0.05% (n = 75,000); P38398; Potency, µM (doses to about 76.9 µM), for inactives: at the highest dose activity change, negative = inhibition, actives largely listed as inhibitors;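 further: potency means the concentration at half of the fitted maximal effect; plate controls were peptide without protein for full effect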
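Compounds were incubated for 12 min at room temperature with a complex of 100 nM fluorescein-tagged pBACH1 decapeptide and 250 nM His-tagged BRCT protein. Buffer was phosphate pH 7.3 with EDTA, DTT and Tween 20. Disruption of binding lowers the polarization signal.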
USP2a inhib: inhibitors of human ubiquitin-specific protease USP2a. O75604. USP2a enzymatic assay, qHTS inhibition. Potency, µM (highest dose often 38.3 µM), inactives show at the highest dose activity change, negative = inhibition, usual class: inhibitors. actives 0.1% (n = 60,000). AID 927;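 further: potency means the concentration at half of the fitted maximal effect; nearly all actives have a fitted effect of over 60% in size; plate controls were DMSO for no effect and NEM full inhibition control for full effect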
Target sequence (O75604 whole entry, looked up): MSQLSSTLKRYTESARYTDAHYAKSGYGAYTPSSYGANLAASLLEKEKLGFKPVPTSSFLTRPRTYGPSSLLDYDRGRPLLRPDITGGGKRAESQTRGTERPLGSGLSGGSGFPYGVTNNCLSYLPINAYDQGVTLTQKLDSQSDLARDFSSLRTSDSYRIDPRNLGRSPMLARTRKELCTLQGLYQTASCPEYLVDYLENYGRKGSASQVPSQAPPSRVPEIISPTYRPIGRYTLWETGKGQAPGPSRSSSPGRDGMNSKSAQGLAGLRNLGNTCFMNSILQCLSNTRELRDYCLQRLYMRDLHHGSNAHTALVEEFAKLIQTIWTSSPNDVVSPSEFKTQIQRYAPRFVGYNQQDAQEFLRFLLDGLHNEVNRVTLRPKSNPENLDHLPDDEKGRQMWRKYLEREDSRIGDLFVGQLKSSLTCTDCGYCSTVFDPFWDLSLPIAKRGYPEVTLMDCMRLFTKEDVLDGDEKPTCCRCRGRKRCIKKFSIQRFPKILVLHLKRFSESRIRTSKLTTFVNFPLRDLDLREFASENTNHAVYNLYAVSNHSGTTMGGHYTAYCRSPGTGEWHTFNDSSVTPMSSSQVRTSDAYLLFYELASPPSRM
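Inhibition is measured in a cell-free coupled assay with 20 nM USP2 core, 20 nM Ub-PLA2 and 20 uM NBD C6-HPC, 2.5 h incubation. Activity normalized to NEM control.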
GFP derepression: epigenetic modulators derepressing GFP locus in mouse cells. Potency, µM (titrated, usually from 46.1 µM), inactives show at the top dose GFP derepression (activation). mouse C127i GFP locus derepression, cytometry, 30 h. actives 0.09% (n = 68,000); further: % of control where 0% means no effect
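Locus derepression in mouse mammary C127i cells whose integrated CMV-GFP reporter is normally silent; GFP expression after 30 h compound treatment was quantified by counting fluorescent cells.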
Hsp90 Hop PPI: changes Hsp90-Hop TPR2A binding signal, up or down; AlphaScreen TPR2A-His6 binding biotin-Hsp90 C-terminal peptide; Potency, µM (highest dose often 57 µM), inactives show top-dose activity change, negative = inhibition; actives 0.44% (n = 71,000); active means well fitted curve in either direction with a large enough effect; inconclusive means small, poorly fitted or top-dose-only effect, or another doubt; further: potency means the concentration at half of the fitted maximal effect; on the % scale 0 is the no-effect control and ±100 the full control effect; many of its hits are not listed in these tables
HBB splicing: modulators of hemoglobin beta chain splicing. HBB splicing reporter cell assay, activation; EGFP reporter with mutant IVS2-654 intron; response scale: normalised to 500 nM splice-correcting PNA. Potency, µM (top dose mostly 46.1 µM), without a hit: at the top dose activation, hits mostly activators. actives 0.06% (n = 65,000); further: potency means the concentration at half of the fitted maximal effect; 0% is about no effect
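HeLa cells stably expressing EGFP interrupted by mutant beta-globin intron 2 (IVS2-654), 500/well in 2% FCS. Treated with compound for 2 days at 37C. Splicing correction scored as total well GFP intensity (488 nm excitation, 500-520 nm emission); 500 nM antisense PNA served as control.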
CRE-bla Fsk: modulators of forskolin-stimulated CRE signaling in CHO cells. CHO CRE-bla reporter (cAMP response element driving beta-lactamase), forskolin EC10, beta-lactamase ratio. Potency, µM (doses to about 38.2 µM), for the others: at the top dose activity change, negative = inhibition, usual class: activators. actives 2.5% (n = 71,000); active means well fitted activation curve with a large enough effect in the signal ratio, with a control signal flat, not every such curve was filed as active; inconclusive means small, poorly fitted or top-dose-only effect, or effect the other way, or a change in a side signal; the % refers to the signal ratio; further: potency means the concentration at half of the fitted maximal effect; % of control where 0% means no effect
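Reporter-gene assay: CHO cells with beta-lactamase behind cAMP responsive elements, co-treated with compound and EC10 NKH 477 for 3 hours at 37 degrees Celsius. Activity came from the 460/530 nm CCF4 emission ratio.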
BRCT PPI red: disrupts BRCA1 BRCT binding to phosphoprotein, red fluorophore readout. BRCT-phosphopeptide binding, red fluorescence polarization. AID 892. P38398. Potency, µM (top dose mostly 76.9 µM), for the others: at the top dose activity change, negative = inhibition, hits mostly inhibitors. actives 0.03% (n = 75,000); further: on the % scale 0 is the no-effect control and ±100 the full control effect
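Fluorescence polarization: 100 nM His-tagged BRCA1 BRCT with 100 nM TAMRA-labelled phospho-BACH1 decapeptide, phosphate buffer pH 7.3 with 150 mM NaCl, DTT, 0.01% Tween 20; 12 min RT. Binding inhibition seen as FP decrease.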
Pol III holo inh: DNA polymerase III holoenzyme inhibition; actives 0.25% (n = 71,000); reconstituted DNA polymerase III holoenzyme replication, biochemical; Potency, µM (highest dose often 57.1 µM), for inactives: at the top dose activity change, negative = inhibition; further: potency means the concentration at half of the fitted maximal effect; on the % scale 0 is the no-effect control and ±100 the full control effect
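Reconstituted *E. coli* holoenzyme (0.35 nM Pol III, 1 nM beta, 154 nM SSB, 2 nM primase) was preincubated with compound for 15 min at RT. Synthesis on 1.4 nM ssM13Gori ran 35 min, then was stopped with PicoGreen/EDTA and read as dsDNA fluorescence.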
An asterisk follows results filed as active; ? = inconclusive; / = not tested or not shown; [ ] = remark or other dose. Unless noted, the call rests on the fitted dose curve; in most records, active means well fitted curve in the direction sought with a large enough effect; inconclusive means small, poorly fitted or top-dose-only effect, or another doubt; inactive means no such curve, though single readings can be large; an effect the other way counts as inactive or inconclusive.

SMILES	UbGFP stabilizer	15-hLO inh	BRCT inh green	USP2a inhib	GFP derepression	Hsp90 Hop PPI	HBB splicing	CRE-bla Fsk	BRCT PPI red	Pol III holo inh
CC(NC(=O)c1noc2c1CCCCC2)c1ccccc1 (stereo unspecified)	-4%	-4%	-1.4%	/	/	-2%[2.3 µM]	0.0%	9%	-1.1%	-2%
COCCn1nnnc1C(c1cc2c(C)cc(C)cc2[nH]c1=O)N1CCCCCC1 (stereo unspecified)	-2%	-9%	-0.8%	?	-2%	-5%	/	8%	-2.6%	-7%
COc1cc2c(cc1OC)CN(C(=O)c1ccccc1C(=O)O)CC2	-1%	?	-1.7%	21%	0%	-9%	-0.9%	?	1.1%	-3%
COc1ccc(-c2nc(CSCC(=O)N3CCN(c4cccc(C)c4)C(C)C3)c(C)o2)cc1OC (stereo unspecified)	1%	-5%	0.0%	/	/	-6%[2.3 µM]	-0.1%	?	0.5%	1%
CCc1cccc(C)c1NC(=O)C1=C(C(=O)O)CCCC1	-3%	3%	-0.4%	-3%	-1%	0%	-1.1%	-14%	-0.2%	-8%
COCCCNC(=O)CC1Oc2ccccc2NC1=O (stereo unspecified)	-11%	8%	-0.6%	/	0%	?	0.9%	0%	-3.3%	-1%
N#Cc1ccccc1-c1ccc2ncnc(NCc3ccccc3)c2c1	-4%	1%	4.2%	76%[activator]	0%[9.22 µM]	6%	0.8%	2µM*	0.7%	-7%
CCOC(=O)N1CCN(c2nc(SC)nc3sc4c(c23)CC(C)(C)OC4)CC1	0%	?	-2.2%	36%[activator]	6%	-9%	-1.1%	?	0.1%	-7%
Cc1cccc(NC(=O)c2sc3nc(-c4ccccc4)cn3c2C)n1	-5%	-15%	8.3%	41%[activator]	-2%	-1%	-0.7%	?	0.5%	10%
CCOC(=O)c1cnn(-c2sc(C(=O)OCC)c(C)c2C(=O)OCC)c1N	/	?	0.0%	17%	-2%	-9%	2.1%[0.369 µM]	19%	1.1%	2%
O=C(CC1Oc2ccccc2NC1=O)NCc1ccccc1 (stereo unspecified)	18%	13%	-1.3%	/	-4%	2%	-0.5%	-2%	0.9%	5%
CC(=O)NC1N=C(C)N(c2ccccc2)C1=O (stereo unspecified)	1%	-3%	-1.0%	-3%	0%	-2%	/	5%	-0.2%	-6%
COC(=O)c1cc(=O)nc2sc(-c3ccc(F)cc3)nn12	0%	?	-1.5%	3%	-3%	-2%	-1.6%	-18%	-0.6%	-6%
Cc1cc(N2C(=O)C(=O)/C(=C(/O)c3ccc(Cl)cc3)C2c2cccc(Br)c2)no1 (stereo unspecified)	0%	66%[activator]	-2.6%	45%[activator]	-3%	-3%	-0.5%	3%	-1.8%	1%
O=C(O)CSc1sc(=S)sc1SCC(=O)O	-7%	-25%	-2.4%	-2%	-1%	-8%	-1.9%	?	0.1%	-3%
Cc1ccccc1-c1cncnc1NCc1cccnc1	6%	?	-3.2%	3%	-3%[9.22 µM]	-19%	0.0%	-6%	0.4%	-1%
COC(=O)/C=c1/sc2nc3ccccc3n2c1=O	11%	?	1.0%	7%	0%	2%	0.8%	3%	-1.1%	0%
CC(C)c1cc(C(=O)Nc2sc3c(c2C#N)CCC3)no1	6%	-15%	-1.1%	-5%	4%	-12%	-2.2%	?	-0.5%	2%
c1csc(-c2nnsc2-c2nc3ccccc3[nH]2)c1	3%	?	0.6%	56%[activator]	1%	-12%	0.0%	5%	-0.9%	0%
CCOc1cc(CNc2ccccc2SC)ccc1O	-2%[9.17 µM]	?	0.1%	3%[7.66 µM]	-2%	-13%[11 µM]	-2.0%[0.0738 µM]	?	-0.1%	-6%[11.4 µM]
CCn1c(N)c(C(=O)NC2CCCCC2)sc1=S	22%	-10%	0.9%	7%	-2%	-9%	-0.9%	?	1.0%	1%
Cc1cc(C(=O)Nc2sc3c(c2C#N)CCCC3)no1	-2%	-14%	0.9%	2%	0%	-3%	-0.6%	?	-0.3%	-4%
Cn1c(=O)[nH]c(=O)c2c1nc(CN1CCOCC1)n2CCCc1ccccc1	2%	-2%	-2.2%	/	/	1%	-0.2%	?	0.8%	-1%
CC(=O)C1=C(C)NC(SCC(=O)c2ccc(Cl)c(Cl)c2)=C(C#N)C1c1ccco1 (stereo unspecified)	-8%	13µM*	3.1%	23%	0%	-12%	-0.1%[9.22 µM]	?	3.5%	-12%
CC1=C(C(=O)OCC2CCCO2)C(c2ccccc2OC(C)C)C2=C(CC(c3ccco3)CC2=O)N1 (stereo unspecified)	0%	32µM*	-0.6%	29%	2%	9%	3.0%	?	-3.8%	4%
Cc1cccc(NC(=O)c2ccccc2C(=O)O)c1	-1%	5%	-2.2%	4%	-3%	-2%	-2.2%	-7%	0.9%	-4%
COc1cccc(C2=Nn3c(nnc3-c3ccccc3O)SC2)c1	-1%	-12%	0.3%	42%[activator]	1%	-9%	-1.3%	?	-0.8%	-3%
CCNc1ncc2nc(CCc3ccccc3)c(=O)n(Cc3cccc(OC)c3)c2n1	3%	-23%	-0.3%	31%	3%[9.22 µM]	-3%	0.0%	?	-0.4%	-2%
O=C(Nc1ccc2c(c1)OCCO2)c1ccc(S(=O)(=O)N2CCCCC2)cc1	-2%	-5%	-1.3%	27%	0%	-7%	-2.2%	-14%	0.2%	-1%
Cc1cc(NC(=O)C2CCCCC2)nc2c1c(=O)oc1ccccc12	0%	-3%	-1.9%	4%	0%	-2%	-1.8%	?	1.2%	2%
CCOC(=O)CNC(=O)Nc1nnc(-c2ccc(OCC)cc2)o1	-6%	6%	-0.1%	1%	4%	-5%	0.0%[57.5 µM]	-3%	-0.9%	-1%
Cc1cnc(CNc2ncncc2-c2ccccc2C(F)(F)F)cn1	3%	?	0.4%	-15%	-3%[9.22 µM]	-9%	-1.0%	4%	-3.3%	-6%
CCOc1ccc(C(=O)Nc2ccc3c(c2)OCCO3)cc1OC	-3%	-6%	-1.7%	1%	3%	-7%	-0.3%	21%	-1.9%	-9%
COC(=O)Oc1c(Br)c(=O)oc2ccccc12	0%	-10%	0.0%	-16%	?	-1%	-1.9%	-4%	0.6%	-8%
Oc1ccc(N2CCN(C(c3cccnc3)c3nnnn3Cc3ccccc3)CC2)cc1 (stereo unspecified)	-3%	13µM*	1.2%	12%	-4%	-9%	-2.7%	?	0.2%	-7%
O=C(Nc1ccc2c(c1)OCO2)c1noc2c1CCCCC2	-3%	-2%	-0.2%	11%	0%	-4%	0.2%	?	-3.3%	-4%
Cc1cc(NC(=O)c2cnccn2)no1	-5%	0%	-5.7%	/	-2%	-5%	0.1%	-1%	-2.3%	1%
O=C(CSc1nc2c(c(=O)n1-c1ccccc1)SCC2)N1CCN(c2ccccc2)CC1	5%	4%	-5.9%	/	/	-4%	-1.1%	5%	-1.7%	3%

Sorted by the number under Pol III holo inh (falling): five from the list above.
Structure,Pol III holo inh
CC1=C(C(=O)OCC2CCCO2)C(c2ccccc2OC(C)C)C2=C(CC(c3ccco3)CC2=O)N1 (stereo unspecified),4%
Cc1cc(NC(=O)C2CCCCC2)nc2c1c(=O)oc1ccccc12,2%
O=C(Nc1ccc2c(c1)OCCO2)c1ccc(S(=O)(=O)N2CCCCC2)cc1,-1%
O=C(Nc1ccc2c(c1)OCO2)c1noc2c1CCCCC2,-4%
COC(=O)Oc1c(Br)c(=O)oc2ccccc12,-8%

One compound at a time, as listed above:
Record of `Cc1cccc(NC(=O)c2ccccc2C(=O)O)c1` → UbGFP stabilizer: -1%; 15-hLO inh: 5%; BRCT inh green: -2.2%; USP2a inhib: 4%; GFP derepression: -3%; Hsp90 Hop PPI: -2%; HBB splicing: -2.2%; CRE-bla Fsk: -7%; BRCT PPI red: 0.9%; Pol III holo inh: -4%
Record of `COC(=O)Oc1c(Br)c(=O)oc2ccccc12` → UbGFP stabilizer: 0%; 15-hLO inh: -10%; BRCT inh green: 0.0%; USP2a inhib: -16%; GFP derepression: ?; Hsp90 Hop PPI: -1%; HBB splicing: -1.9%; CRE-bla Fsk: -4%; BRCT PPI red: 0.6%; Pol III holo inh: -8%

This is a subset; rates above refer to the full screens.
